VACV mCherry inh = vaccinia inhibition (mCherry reporter) | actives 0.63% (n = 310,000) | Vaccinia virus mCherry reporter infection, fluorescence; about a quarter of the inactives have no number | Potency, µM (top dose mostly 36.5 µM), for the others: at the highest dose activity change, negative = inhibition, most hits filed as inhibitors; active = well fitted inhibition curve with a large enough effect; inconclusive = small, poorly fitted or top-dose-only effect; inactive = no such curve, though single readings can be large or run the other way; tested in A549 cells; note: nearly all actives have a fitted effect of over 35% in size; inactives centre near -10
Vaccinia Venus = inhibitors of vaccinia virus (Venus reporter) | Vaccinia virus Venus reporter expression, fluorescence | Potency, µM (highest dose often 36.5 µM), for inactives: at the highest dose activity change, negative = inhibition, usual class: inhibitors | actives 0.46% (n = 330,000); active means well fitted inhibition curve with a large enough effect; inconclusive means small, poorly fitted or top-dose-only effect; inactive means no such curve, though single readings can be large or run the other way; tested in A549 cells; note: nearly all actives have a fitted effect of over 30% in size; inactives centre near -10
* marks the source's active call; other numbers are inactive results; i = inactive; ? = inconclusive; / = no result given; & = joins results of further samples; [ ] = dose if it differs, or a comment. % is set by controls: 0 for no effect and ±100 for the full control effect; potency is the fitted concentration of half-maximal effect. Outcome played no part in choosing rows; 0.82% or so of the library scored in one or more.

Values run as follows: Vaccinia Venus, VACV mCherry inh
Cc1ccc(NC(=S)N2CCN(S(=O)(=O)c3ccc(C)cc3)CC2)cc1
 : -10%, i
Cc1ccc2cc(/C=N/NC(=O)CN3CCOCC3)c(Cl)nc2c1
 : -17%, -2%
COc1ccc(CNC(=O)CN(C(=O)c2snc(C(N)=O)c2N)c2cccc(F)c2)cc1
 : -5%, -15%
O=C(CC1C[C@H](C(=O)N2CCOCC2)[C@@]2(CCC3CCCC3)c3[nH]c4ccccc4c3CCN2C1=O)NCC12CC3CC(CC(C3)C1)C2 (stereo partly specified)
 : ?, -21%
COc1cc(C(=O)OCC(=O)Nc2cc(S(=O)(=O)N3CCOCC3)ccc2C)ccc1OCC(C)C
 : -4%, -3%
Cc1cc(C(=O)NNC(=O)c2sccc2C)c(C)o1
 : -19%, -16%
COc1ccc(CSc2nc(C)[nH]c2[N+](=O)[O-])cc1[N+](=O)[O-]
 : -14%, -20%
O=C(NC(=S)Nc1cccc(O)c1)c1cncc(Br)c1
 : -6%, -6%
O=C(NCC(=O)N1CCN(c2ccccc2O)CC1)c1ccc2ccccc2c1
 : -22%, ?
O=S1(=O)N[C@@H](Cc2ccccc2)COc2cccc(N3CCC[C@@H]3CO)c21
 : -2%, 3%
O=c1[nH]c(C2CCN(S(=O)(=O)c3ccccc3C(F)(F)F)CC2)nc2c1nnn2Cc1ccccc1
 : -24%, -18%
COc1ccc(NC(=O)c2ccco2)cc1NC(=O)COc1cccc(C)c1C
 : ?, ?
COc1ccccc1NC(=O)c1ccc(-c2ccccc2[N+](=O)[O-])o1
 : -15%, -25%
CCOc1ccc(NC(=O)c2ncoc2-c2ccco2)cc1
 : -22%, -12%
Cc1[nH]c2ccc(C(=O)N3CCN(c4ccccc4F)CC3)cc2c1C
 : -16%, -15%
CC(c1ccccc1)N1CC(C(=O)N2CCN(c3ccccc3)CC2)CC1=O (stereo unspecified)
 : -8%, -5%
COc1cc(NC(=O)c2nccn2C)cc(C(=O)Nc2cccc(C(F)(F)F)c2)c1
 : ?, ?
Cc1ccc(NS(=O)(=O)c2c(C)[nH]c(C)c2C(=O)N2CCCC2)cc1Cl
 : -9%, -11%
CCCOC(=O)c1cc(=O)[nH]c2ccccc12
 : -18%, -2%
Cc1ccc2c(c1)N(CC(=O)NCCCN1CCCCC1)C(=O)CO2
 : 0%, -13%
COC1=C(N)C(=O)c2nc(-c3nc(C(=O)O)c(C)c(-c4ccc(OC)c(OC)c4O)c3N)ccc2C1=O
 : 0.63µM*, 0.71µM*
COc1ccc(OC(=O)N(C)C[C@@H]2OCc3cn(nn3)CCCC(=O)N([C@H](C)CO)C[C@H]2C)cc1
 : 2%, i
Cc1ccn(C(=O)c2cc3c(C)nn(-c4ccccc4)c3s2)n1
 : -18%, /
CC1=C(C(=O)N2CCCCCC2)CC(CC(=O)NC2CCCC2)C(=O)N1Cc1ccc(C(C)(C)C)cc1 (stereo unspecified)
 : -23%, -24%
O=S(=O)(c1ccc2c(c1)OCCO2)N1CCN(CCc2ccccc2)CC1
 : -11%, -14%
CC(=O)N(Cc1c(C#N)c2ccccc2n1C)c1ccccc1
 : -12%, -3%
CCSC1=N/C(=C\c2cccnc2)C(=O)N1c1ccccc1
 : -20%, -14%
CC1(c2ccc(C#N)cc2)NC(=O)N(CC(=O)Nc2cc(S(=O)(=O)N3CCOCC3)ccc2Cl)C1=O (stereo unspecified)
 : -16%, i
COc1cnn(-c2cc(Oc3ccc(C)cc3)ncn2)c(=O)c1Cl
 : 7%, /
CN(Cc1ccc(F)cc1)C(=O)c1cc(COc2ccc(F)cc2F)on1
 : -1%, i

2 compounds drawn at random from those above, as already listed:
Values run as follows: Vaccinia Venus, VACV mCherry inh
COc1cc(NC(=O)c2nccn2C)cc(C(=O)Nc2cccc(C(F)(F)F)c2)c1
 : ?, ?
O=C(NCC(=O)N1CCN(c2ccccc2O)CC1)c1ccc2ccccc2c1
 : -22%, ?

The listing picks up with the 4 entries that preceded the break.
Values run as follows: Vaccinia Venus, VACV mCherry inh
CCSC1=N/C(=C\c2cccnc2)C(=O)N1c1ccccc1
 : -20%, -14%
CC1(c2ccc(C#N)cc2)NC(=O)N(CC(=O)Nc2cc(S(=O)(=O)N3CCOCC3)ccc2Cl)C1=O (stereo unspecified)
 : -16%, i
COc1cnn(-c2cc(Oc3ccc(C)cc3)ncn2)c(=O)c1Cl
 : 7%, /
CN(Cc1ccc(F)cc1)C(=O)c1cc(COc2ccc(F)cc2F)on1
 : -1%, i
O=C(CN(C(=O)CCC(=O)Nc1nccs1)c1cccc(F)c1)NCc1ccc2c(c1)OCO2
 : -5%, ?
O=C(CSc1nccc(=O)[nH]1)NC1CCCc2ccccc21 (stereo unspecified)
 : -6%, i
COC(=O)[C@@H](NC(=O)c1ccccc1)[C@@H](C)O
 : -6%, i
COc1ccc(Br)cc1CN(C)CC(=O)Nc1cccc(S(=O)(=O)N2CCCC2)c1
 : -20%, ?
Cc1ccc(NC(=O)NNS(=O)(=O)c2ccc(Br)cc2)cc1
 : -9%, /
Cn1c(=O)n(C)c2cc(NS(=O)(=O)c3ccccc3[N+](=O)[O-])ccc21
 : -16%, -4%
CCc1nc(C)cn1S(=O)(=O)c1ccc2c(c1)OCCO2
 : -13%, -5%
CCC1=Nc2cc(C(=O)NC3CCCC3)ccc2Sc2ccc(Br)cc21
 : -21%[7.34 µM], -26%[7.34 µM]
O=C(O)c1cccnc1SC1CC(=O)N(Cc2ccccc2)C1=O (stereo unspecified)
 : -1%, -6%
CCCCNC(=O)c1nc(C2CCNCC2)oc1-c1ccccc1
 : -3%, -20%
COc1ccc(CNC(=O)c2cc(C)nc3ccccc23)cc1OC
 : -7%, i
OCCC1CN(Cc2cccn2-c2nccs2)CCN1CCc1ccccc1 (stereo unspecified)
 : 4%, -1%
COc1ccc(C)cc1S(=O)(=O)N1CCN(c2cccc(Cl)c2)CC1
 : -4%, 5%
Cc1cc(C(=O)NCCN2Cc3ccccc3OC(c3ccccc3F)C2)no1 (stereo unspecified)
 : 10%, -1%
Cc1cccc(-c2nnc(SCC(=O)Nc3nc4c(s3)CCCC4)n2C)c1
 : -29%, ?
N/C(=N\OC(=O)c1cccs1)C1(c2ccc(Cl)cc2Cl)CC1
 : -9%, 8%
Oc1c(Br)cc(Br)cc1CNc1ccccn1
 : -4%, i
Cc1ccc(C(=O)CSc2nnc(-c3ccccc3N)n2C)cc1
 : -9%, i
COc1ccc(/C=N/N=C2\CC3CCC2(C)C3(C)C)cc1O (stereo unspecified)
 : -9%, -11%
C/C(=N\Nc1nc(C(=O)O)cs1)c1ccccc1
 : -12%, -6%
COc1ccc(N2CCN(c3nc(-c4cccs4)nc4ccccc34)CC2)cc1
 : -10%, -27%
CC(=O)Cc1nsc(NC(=O)c2ccc(-c3ccc(F)cc3)o2)n1
 : -4%, -6%
O=C(COc1ccc(Cl)cc1)Nc1cccc(-c2ccc3nncn3n2)c1
 : 3%, -6%
CCOC(=O)Cc1nnc(NC(=O)C23CC4CC(CC(C4)C2)C3)s1
 : 2%, -6%
O=S1(=O)CC(N2CCSCC2)CN1Cc1cn(Cc2ccc(F)cc2)nn1 (stereo unspecified)
 : 0%, 18%
COc1ccc(-c2cc(C(F)(F)F)nc(-n3nc(C(F)(F)F)cc3C)n2)cc1
 : -7%, -8%
O=C(Cc1ccc(OCCC2CCCCC2)cc1)NO
 : -15%, ?
C[C@H](CO)N1C[C@H](C)[C@@H](CN(C)S(=O)(=O)c2cn(C)cn2)Oc2ccc(NC(=O)NC3CCCCC3)cc2C1=O
 : -8%, i
COc1ccc(N(C(=O)c2ccco2)S(=O)(=O)c2ccccc2)cc1
 : -12%, i
Cn1c(N2CCN(C(c3ccccc3)c3ccccc3)CC2)nc2ccccc21
 : -22%, -8%
CC(=O)CC1=NC(C)(C)Cc2ccccc21
 : -2%, -11%
COc1ccc2[nH]c3c(c2c1)CCN1C(=O)C(CC(=O)NC(C)(C)C)C[C@H](C(=O)N2CCOCC2)[C@@]31CCC1CCCC1 (stereo partly specified)
 : ?, -13%
CCC(=O)N1CCN(c2nc(-c3ccccc3)c3c(c2C#N)CCCC3)CC1
 : -10%, -8%
CCCCNC(=O)O[C@@H]1C[C@H]2CCCC(=O)N3CC[C@@H](C1)[C@@H]23
 : -7%&-5%, i
S=C1NC2(CCCCCC2)N=C1c1ccccc1
 : -5%, -25%
O=C(Nc1nccs1)c1ccc([N+](=O)[O-])cc1
 : -4%, -9%
C=CCNC(=O)CSc1nnc(-c2ccc(S(=O)(=O)N3CCCC3)cc2)n1C
 : 5%, 9%
CC(=O)c1cc2c(cc1NC(=O)CCCC(=O)O)OCO2
 : -5%, -12%
O=C(COc1ccccc1[N+](=O)[O-])N(C1CCCCC1)C1CCS(=O)(=O)C1 (stereo unspecified)
 : -11%, -15%
O=S(=O)(c1ccc(SCCO)nc1)N1CCCC1
 : -2%, -10%
CCOc1ccc(NC(=O)CN(C)C(=O)C2CC(=O)N(c3ccc4c(c3)OCCO4)C2)cc1OCC (stereo unspecified)
 : -10%, i
O=C(Nc1cccc(NC(=O)c2ccco2)c1)c1ccc([N+](=O)[O-])cc1
 : 0%, i
O=C(c1cc2ncc(CCCl)cn2n1)N1CCCCCC1
 : -9%, i
O=C(Nc1c(Cl)cccc1Cl)c1cc(-c2cccc(O)c2)on1
 : -4%, -16%
Cc1ccc(N=c2c([N+](=O)[O-])nn(-c3ccc4c(c3)OCCO4)n2O)cc1F
 : -17%, -15%
O=C(CSc1ccccc1)Nc1nnc(COc2ccc(Cl)cc2)s1
 : -1%, -10%
CCCN1CCC(=O)N([C@H](CSc2ccc(Br)cc2)c2ccccc2)CC1
 : ?, -9%
CS(=O)(=O)N(CC(=O)NCc1ccco1)c1ccc2c(c1)OCO2
 : -5%, -3%
O=C(Cn1nnc(-c2ccc3c(c2)OCO3)n1)NCc1ccccc1
 : -12%, -4%
CCN(CC)S(=O)(=O)c1ccc(N=Nc2c(C)[nH]n(C(N)=S)c2=O)cc1
 : -5%, -11%
Cc1nnc(NC(=O)CCCN2C(=O)c3ccccc3C2=O)s1
 : -4%, -10%
CC(N)[C@@H](O)c1ccccc1 (stereo partly specified)
 : 0%, i
Cn1c(-c2ncc(F)cc2F)cc2onc(-c3c(F)cccc3Cl)c2c1=O
 : -11%, i
Cc1ccccc1-c1cnc2c(c1)C(=O)N([C@H](C)CO)C[C@@H](C)[C@H](CN(C)C(=O)c1ccncc1)O2
 : -2%, -23%
CC1(C(=O)NS(=O)(=O)c2cccc(Cl)c2)CCN1C(=O)CCc1ccccc1 (stereo unspecified)
 : 4%, 5%
O=C(CC1SC(N2CCCC2)=NC1=O)Nc1ccc(C(=O)NCc2ccccc2F)cc1 (stereo unspecified)
 : -14%, -18%
CCCn1c(C)cc(C(=O)COc2ccc(S(=O)(=O)N(CC)CC)cc2[N+](=O)[O-])c1C
 : -14%, i
C=CCNC(=O)/C(=C\c1ccc([N+](=O)[O-])cc1)NC(C)=O
 : -10%, /
CCOC(=O)c1[nH]c(C=O)c(C(=O)OCC)c1C
 : 3%, 1%
CCOc1ccc(S(=O)(=O)n2nc(C)cc2C)c2ccccc12
 : -7%, -14%

Remaining list, next part.
Values run as follows: Vaccinia Venus, VACV mCherry inh
Cc1ccc(O)c(NC(=O)c2cc(C)no2)c1
 : -18%, -18%
CC(=O)Nc1cccc(-c2ccnc3c2CC(C(=O)Nc2ccc(F)c(Cl)c2)O3)c1 (stereo unspecified)
 : -20%, -5%
Cc1ccc(Oc2nccc(-c3ccc(Cl)cc3)n2)cc1
 : -9%, /
CCOc1ccc(S(=O)(=O)c2cn(Cc3ccc(C)cc3)c3ccc(OC)cc3c2=O)cc1
 : -10%, -2%
CCNC(=O)CC1C(=O)N(c2ccccc2)C(=O)N1CCC(C)C (stereo unspecified)
 : -8%, /
CCN(CC)C(=S)Nc1ccc(Cl)c(Cl)c1
 : -9%, -13%
CS(=O)(=O)N(CC(=O)N1CCN(c2ccccc2)CC1)c1ccccc1Cl
 : -13%, -17%
COCCn1c(=O)[nH]c2cc(C(=O)N3CCN(c4ccc(F)cc4)CC3)ccc2c1=O
 : -1%, -5%
Cc1ccccc1NC(=O)CSc1nc2c(c(=O)n(C)c(=O)n2C)n1Cc1ccccc1F
 : -10%, -6%
O=[N+]([O-])c1ccc(N2CCN(c3cccc(Cl)c3)CC2)cn1
 : -20%, ?
Cc1ccc(CNC(=O)CCc2c(C)c3cc4c(C)coc4cc3oc2=O)cc1
 : -1%, -7%
O=C(NC(=S)Nc1ccccn1)c1ccc([N+](=O)[O-])cc1
 : -12%, i
C=CCn1c(CNc2ccc(C)cc2)nnc1SCC(=O)N/N=C/c1ccc(O)cc1O
 : -4%, /
COc1ccc(CNC(=O)Cc2c(C)c3c(cc(C)c4c(C)coc43)oc2=O)cc1
 : -1%, -7%
C#CC1(O)CCCC2C3CCC4CC(OC(C)=O)CCC4(C)C3C(=O)CC21C (stereo unspecified)
 : -9%, -2%
CCCn1c2ccccc2c2cnn(CC(=O)NCc3ccc(OC)cc3)c(=O)c21
 : ?, -28%
CCOc1ccc(-c2cc3nc(C4CCN(C(=O)OC(C)(C)C)CC4)c(C(=O)Nc4cccc(Cl)c4C)cn3n2)cc1
 : -12%, -12%
NC(=O)CCN1CCCCC1
 : -19%, -22%
COc1ccc(C(=O)/C=C/c2ccccc2F)c(OC(=O)c2ccc([N+](=O)[O-])cc2)c1
 : -11%, -4%

Source: PubChem
